Screens as filed in PubChem BioAssay.
CSC inhib – cancer stem cell viability inhibitors, primary screen, luminescence. inhibition, % at 7.5 µM. hit rate 1.1% among 300,000. cancer stem cell-like cells viability. AID 2717, 2010;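 active = mean at 75% or more and at least half the replicates too; inconclusive = mean and replicates disagree; tested in HMLE shEcad cells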;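 also: 0% = median of negative and 100% = median of positive control wells; the first replicate is given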
eIF4H inh – human eIF4H binding inhibitors, primary screen, translation initiation inhibitor project, biochemical, uHTS, fluorescence polarization | Eukaryotic translation initiation factor 4H (Homo sapiens), Q15056 | eIF4H fluorescence polarization binding assay | inhibition, % at 35 µM | hit rate 0.94% among 290,000;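 active = 50% or more with normal probe brightness, or confirmed in later tests; inconclusive = above 50% with abnormal brightness, or retests that disagree; inactive = below 50% or failed in later tests; about a fifth of its hits are not listed in these tables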;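 also: calls also rest on retests at 20 µM and on dose response follow-up; 0% = protein and probe with vehicle and 100% = probe without protein; strong numbers were not always called active; many hits fall short of the cut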
UUG fidelity – modulators of yeast start codon fidelity, primary screen, whole organism, S. cerevisiae, single point, plate reader. S. cerevisiae UUG-firefly luciferase reporter, luminescence/redox ratio. activity score, % at 18.7 µM. hit rate 0.13% among 350,000;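 active = replicate mean at a twofold rise or more, about +100% in these data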;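 also: firefly luciferase made from a UUG start codon reports start codon fidelity; reporter light over untreated wells divided by growth signal over untreated wells; some hits fall short of that in this replicate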
MT1-MMP act inh – blockers of MT1-MMP proenzyme processing, primary screen, HT1080 RFP-PRO-GFP cells, GFP/RFP fluorescence; GFP/RFP ratio fluorescence, overnight; percent of plate control window, DMSO zero; GFP/RFP ratio change, % at 20 µM; hit rate 0.061% among 360,000; AID 651647, 2012;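 active = GFP/RFP ratio change of at least 30% with cell ATP level not reduced by more than half and red fluorescence within 50% of control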; also: strong numbers were not always called active
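Test system: HT1080 cells expressing an RFP-PRO-GFP fluorescent reporter construct / Compound dosing: single-point 20 µM compound, 1% DMSO / Schedule: cells overnight before dosing, compound overnight, 37 °C, 5% CO2 / Evaluation: GFP/RFP fluorescence ratio / Control set: DMSO and RFP-L50D-GFP cell wells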
PABP FP inh – PABP poly(A) RNA binding inhibitors, primary screen, biochemical, fluorescence polarization, uHTS. hit rate 1% among 290,000. inhibition, % at 35 µM. AID 2014, 2009;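 active = 50% or more with normal probe brightness, or confirmed in later tests; inconclusive = above 50% with abnormal brightness, or retests that disagree; inactive = below 50% or failed in later tests; about a fifth of its hits are not listed in these tables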;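 also: calls also rest on retests at 20 µM and on dose response follow-up; controls were probe without protein and protein plus probe with vehicle; some compounds called inactive have numbers as strong as hits; many hits fall short of the cut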
Target sequence (P11940 whole entry, looked up): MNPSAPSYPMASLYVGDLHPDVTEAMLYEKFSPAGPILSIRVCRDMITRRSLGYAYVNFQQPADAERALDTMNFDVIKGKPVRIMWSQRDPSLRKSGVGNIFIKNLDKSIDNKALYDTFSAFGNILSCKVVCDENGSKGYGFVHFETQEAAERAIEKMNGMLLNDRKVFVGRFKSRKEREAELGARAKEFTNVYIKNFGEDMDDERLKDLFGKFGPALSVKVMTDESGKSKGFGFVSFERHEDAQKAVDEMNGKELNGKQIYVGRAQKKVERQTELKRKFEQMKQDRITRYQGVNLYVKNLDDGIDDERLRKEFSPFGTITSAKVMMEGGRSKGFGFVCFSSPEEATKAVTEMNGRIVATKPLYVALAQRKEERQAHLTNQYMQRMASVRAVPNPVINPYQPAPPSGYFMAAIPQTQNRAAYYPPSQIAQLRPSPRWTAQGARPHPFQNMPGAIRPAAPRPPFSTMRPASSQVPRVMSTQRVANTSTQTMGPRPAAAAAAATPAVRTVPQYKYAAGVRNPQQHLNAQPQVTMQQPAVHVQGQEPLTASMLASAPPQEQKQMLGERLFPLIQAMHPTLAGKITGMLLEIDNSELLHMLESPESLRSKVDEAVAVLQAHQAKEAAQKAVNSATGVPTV
Env fusion inh – inhibitors of HIV-1 Env-driven cell-cell fusion, primary screen, HeLa-JRFL effector, CEM21 target cells, luciferase; hit rate 1.1% among 360,000; AID 651610, 2012; inhibition, % at 12.3 µM;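 active = mean replicate inhibition score of at least 50 and every replicate individually at or above 50; inconclusive = only one of the two criteria met; inactive = mean below 50 and not all replicates reaching 50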;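 also: 0% = plate neutral controls and 100% = maraviroc near 300 nM; one replicate is shown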
Rce1 inhib – yeast Rce1p protease inhibitors, primary screen, biochemical, fluorescence, cell-free homogeneous; AID 2563, 2010; hit rate 0.27% among 290,000; calls only; yeast membranes, quenched prenylated peptide cleavage fluorescence; CAAX prenyl protease 2 (Saccharomyces cerevisiae (strain ATCC 204508 / S288c)), Q03530;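 active = fall in fluorescence gain of 50% or more versus controls, with final raw signal at or below 3038400; inconclusive = same 50% fall but final raw signal above 3038400; inactive = fall in fluorescence gain under 50%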;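 also: plate controls were neutral control wells for no effect and wells lacking membranes for full effect; tested at 10 µM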
MT1-MMP act inh RFP – also measured in MT1-MMP act inh; calls as there; RFP signal change, %; measured here: RFP expression control read;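 0 = vehicle wells; hits needed this value within 50% of zero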
* = called active by the depositor; i = inactive; ? = inconclusive; . = not tested or not shown. The list is partial; rates above refer to the full screens.

SMILES	CSC inhib	eIF4H inh	UUG fidelity	MT1-MMP act inh	MT1-MMP act inh RFP	PABP FP inh	Env fusion inh	Rce1 inhib
Cc1cc(C(=O)NCc2ccco2)no1	2.0	-2.1	.	-6.7	-2.3	-9.1	-47.8	i
CC(=O)Nc1ccc(NC(=O)CN(c2ccc(C(C)C)cc2)S(=O)(=O)c2ccccc2)cc1	-10.9	-3.8	-21.5	1.8	-2.2	3.0	22.1	i
COc1cccc(/C=N/NC(=O)c2ccc(-c3ccccc3)cc2)c1O	?	0.4	-11.3	8.3	-2.9	-6.8	.	i
O=c1cc(-c2ccccc2Cl)oc2c(NS(=O)(=O)c3ccccc3OC(F)(F)F)ccc(O)c12	54.1	-6.8	.	.	.	4.5	26.2	i
Cc1ccc(OCC(=O)Nc2sc3c(c2C#N)CCC3)cc1	-5.7	-12.1	-20.6	5.7	-1.3	-5.0	.	i
COc1cccc(CC(=O)Nc2nccs2)c1	-16.4	-14.0	-21.9	-1.0	1.2	-2.6	-2.8	i
COc1ccc(Cl)cc1N(C(C)C(=O)NC1CCCC1)S(C)(=O)=O (stereo not given)	.	-7.8	.	3.9	4.2	-16.9	7.7	i
CCCCC(CC)CNC(=O)CN1C(=O)NC2(CCc3ccccc32)C1=O (stereo not given)	-7.0	-15.4	.	2.3	0.6	-10.5	1.8	.
COc1ccc(NC(=O)CCn2c(=S)[nH]c3ccccc3c2=O)cc1Cl	.	.	-19.6	4.6	0.8	.	-11.5	.
COc1cc(C(=O)NCCNC(=O)c2cnccn2)cc(OC)c1OC	-1.2	-4.3	.	2.8	5.7	7.4	-13.3	i

Profiles from above. Order of screens: CSC inhib	eIF4H inh	UUG fidelity	MT1-MMP act inh	MT1-MMP act inh RFP	PABP FP inh	Env fusion inh	Rce1 inhib
Shown for Cc1cc(C(=O)NCc2ccco2)no1 : 2.0	-2.1	.	-6.7	-2.3	-9.1	-47.8	i
Shown for COc1cccc(CC(=O)Nc2nccs2)c1 : -16.4	-14.0	-21.9	-1.0	1.2	-2.6	-2.8	i
Shown for COc1cc(C(=O)NCCNC(=O)c2cnccn2)cc(OC)c1OC : -1.2	-4.3	.	2.8	5.7	7.4	-13.3	i

(listing goes on)
SMILES	CSC inhib	eIF4H inh	UUG fidelity	MT1-MMP act inh	MT1-MMP act inh RFP	PABP FP inh	Env fusion inh	Rce1 inhib
CC(C)c1ccc(N2C(=O)CC(Sc3nc4ccccc4o3)C2=O)cc1 (stereo not given)	8.2	-6.8	-13.4	1.2	1.6	-1.8	3.4	i
Cc1ccc(Cl)cc1N1C(=O)CC(Sc2ccccc2N)C1=O (stereo not given)	.	.	-18.3	3.5	3.3	.	7.6	.
CC(Oc1ccc2c3c(c(=O)oc2c1)CCC3)C(=O)NCCCn1ccnc1 (stereo not given)	-5.0	-8.8	.	0.2	1.8	0.9	4.5	i
Brc1ccc(OCCOCCOc2cccc3cccnc23)cc1	7.8	.	-9.8	1.7	-1.8	.	.	i
Cc1cc(C)n(CCCC(=O)O)n1	21.2	-7.7	-15.9	2.1	-1.3	1.5	?	i
COC(=O)c1ccc(C(=O)OC)c(NC(=O)CN2CCN(c3ccccc3OC)CC2)c1	-13.5	-9.6	-15.9	5.6	-9.9	-1.9	.	i
Cn1nnc(NC(=O)c2cccc([N+](=O)[O-])c2)n1	-5.6	-2.8	.	0.3	2.0	6.3	4.7	i
C=CCN(C(=O)CNC(=O)c1ccco1)C(C(=O)NC1CCCCC1)c1ccccc1 (stereo not given)	-0.4	-1.9	-8.8	-1.8	7.0	-3.4	.	i
Cc1ccc(N2C(=O)N3[C@H](c4cccc(C)c4)[C@@H]4C(=O)N(Cc5ccccc5)C(=O)[C@@H]4[C@]3(C)C2=O)cc1	-19.9	.	-18.4	1.6	-4.3	.	81.3*	i
COc1ccc(NC(=S)N2CCN(CCN=CC3=C(O)CC(c4ccccc4)CC3=O)CC2)cc1 (stereo not given)	-17.1	-1.2	.	2.9	3.3	-3.0	20.2	i
Nc1ccc(C#Cc2c(-c3ccsc3)oc3ccc(N4CCOCC4)cc23)cc1	-12.8	.	-15.7	1.6	-0.3	.	-144.2	i
Cc1ccc(C2(C)NC(=O)N(CC(=O)NCc3ccccc3Cl)C2=O)cc1 (stereo not given)	-6.6	-6.5	4.7	6.0	3.5	3.0	10.0	i
CC1(C(=O)NCC2CCOCC2)Cc2c(-c3cccc(C(F)(F)F)c3)ccnc2O1 (stereo not given)	.	.	2.4	0.5	-8.3	.	34.7	.
O=C(NC1CCCCC1)c1cccc(N2C(=O)CCC2=O)c1	.	.	-29.7	1.6	1.2	.	-14.1	.
CC(C)Cn1c(SCC(=O)NC(=O)Nc2ccc3c(c2)OCCO3)nc2ccccc2c1=O	30.8	10.8	-4.1	2.5	-5.9	2.9	.	i
CSc1ccc(C2c3[nH]c4ccccc4c3CCN2C(=O)c2cc(C)n(C)n2)cc1 (stereo not given)	-7.7	-3.5	.	.	.	-1.1	.	i
CCc1sc(NC(=O)COC)nc1-c1ccccc1	-0.8	-1.2	-9.9	5.8	-2.3	-5.4	.	i
C=CCn1c(SCC(=O)NC23CC4CC(CC(C4)C2)C3)nc2cc(C(=O)O)ccc2c1=O	-11.1	3.2	.	9.2	2.0	4.4	-5.1	i
COc1ccc2cc(Br)ccc2c1CC(=O)N1CCCC1	17.5	0.2	-5.8	1.6	-2.7	-4.2	31.8	i
CCN1CCN(c2ccc(NC(=O)COc3ccc([N+](=O)[O-])cc3)cc2)CC1	2.6	3.5	-13.3	-1.6	-0.3	7.4	9.1	i
CC(C)(C)c1nnc(NC(=O)C2CCN(c3ncccn3)CC2)s1	.	7.9	.	-3.3	-7.7	-5.0	.	i
CC(=O)Nc1cc2c(nc1C)nc(C)n2Cc1ccc(Br)cc1	-10.3	2.1	-11.9	0.3	-2.8	9.2	.	i
CC(=O)n1cc(N(C(=O)CCl)c2ccc(Cl)cc2)c2ccccc21	29.9	2.9	-2.4	-11.0	-12.4	-6.1	.	i
CC(=O)Cc1nsc(Nc2ccc(F)cc2)n1	-10.6	2.3	-17.7	.	.	-9.5	-2.3	i
CCc1nnc(SCC(=O)Nc2nccs2)n1CC	-3.7	-15.2	-15.5	-0.6	-3.5	-5.8	-6.3	i
CCNC(=O)NC(=O)CSc1cccc(C(F)(F)F)c1	3.1	-4.3	-22.7	-0.7	-6.7	4.5	.	i
O=C(Cc1c(Cl)cccc1Cl)Nc1ccncc1Cl	9.1	-2.6	-15.4	-7.1	-16.9	-1.1	61.2*	i
COCCNC(=O)c1ccc(NS(=O)(=O)c2ccc3[nH]c(=O)[nH]c3c2)cc1	0.4	4.7	-19.1	-2.1	1.4	-0.7	5.7	i
Cc1nn(CCCC(=O)NCc2ccccc2Cl)c(=O)c2nccn12	3.2	-0.5	-12.3	4.4	6.0	2.5	0.4	i
CC(C)(C)c1ccc(CC(=O)N2CCC2(C)C(=O)NCCC#N)cc1 (stereo not given)	.	.	-9.8	1.5	4.5	.	16.5	.
COC(=O)[C@]1(Cc2ccccc2)N[C@H](CN(C)S(=O)(=O)c2ccc(OC)cc2)[C@@H]2C(=O)N(C)C(=O)[C@@H]21	.	.	-7.5	2.4	2.3	.	7.9	.
Nc1cccc(CCc2nc3cc4ccccc4cc3[nH]2)c1	-12.1	15.6	-14.0	0.6	-13.3	6.9	i	i
Cc1nn(CCO)c(C)c1Oc1ccccc1O	-3.7	-12.1	-14.9	13.5	2.5	-10.3	.	i
Cc1ccc(-c2noc(C3CCCN(C(=O)c4ccccc4Br)C3)n2)cc1 (stereo not given)	23.0	-1.0	-6.2	-2.4	-27.5	9.8	-17.9	i
Brc1ccc(-c2noc(C3CCCCC3)n2)cc1	1.8	2.3	.	3.6	2.1	-0.4	-17.9	i
OC1(c2ccc(Cl)cc2)CN(c2ccccc2)C2=[N+]1CCS2 (stereo not given)	1.3	-9.9	.	-4.2	-6.1	-12.5	18.2	i
CCOC(=O)c1[nH]c2ccccc2c1CCCN1C(=O)c2ccccc2C1=O	.	-10.1	-9.4	-4.0	-6.3	0.4	-11.3	i
Cc1ccc(C2N(c3ccccc3)C(=S)N3CCCN23)cc1 (stereo not given)	5.2	-12.3	-17.9	-3.8	4.9	2.1	.	i
COc1cc(-c2cc(C(=O)NCc3ccc(S(N)(=O)=O)cc3)c3ccccc3n2)cc(OC)c1OC	-6.0	0.4	10.9	3.6	-0.1	16.7	10.0	i
Cc1oc(C2CC2)cc1C(=O)O	-14.2	1.3	-16.2	6.1	5.8	-0.8	-13.1	i

Next section, overlapping the part above by 2 compounds.
SMILES	CSC inhib	eIF4H inh	UUG fidelity	MT1-MMP act inh	MT1-MMP act inh RFP	PABP FP inh	Env fusion inh	Rce1 inhib
COc1cc(-c2cc(C(=O)NCc3ccc(S(N)(=O)=O)cc3)c3ccccc3n2)cc(OC)c1OC	-6.0	0.4	10.9	3.6	-0.1	16.7	10.0	i
Cc1oc(C2CC2)cc1C(=O)O	-14.2	1.3	-16.2	6.1	5.8	-0.8	-13.1	i
CN1/C(=C\C(=O)c2ccccc2Cl)c2ccccc2CC1(C)C	13.3	-2.1	.	-0.2	2.3	-6.2	-10.5	i
COc1ccc(NC(=O)CSc2nnc(-c3ccccc3C)n2C)cc1	-1.0	8.6	-15.4	-1.8	-5.5	-2.7	-3.3	i
COc1ccc(-n2nc(C(=O)NCC(=O)NCc3ccccc3OC)c3ccccc3c2=O)c(OC)c1	1.0	2.7	.	0.4	3.8	-8.8	-10.2	i
Cc1cc(NC(=O)CSc2nnnn2-c2ccccc2C)no1	11.5	14.5	-27.0	5.9	1.3	1.8	-17.7	i
COC(=O)c1ccc(/C=C/c2nc3ccccc3c(=O)[nH]2)cc1	13.6	-0.3	7.0	-2.0	-2.1	-0.8	-7.4	i
Cc1ccc(C)c(C(=O)NC(C)c2ccc(-n3ccnc3)cc2)c1 (stereo not given)	2.5	-19.3	-15.3	0.3	-2.2	-4.7	-77.4	i
Cc1ccc(C)c(S(=O)(=O)/N=C(/Nc2ccccc2)c2ccccc2)c1	0.7	.	.	-2.1	-1.9	.	4.4	.
CCOc1ccc(CCNC(=O)CN2C(=O)COc3ccc(S(=O)(=O)N4CCOCC4)cc32)cc1	3.6	2.1	-2.2	-0.4	2.7	-4.5	-6.0	i
C[C@H](NC(=O)c1ccc(Cl)cc1)C(=O)NCCc1ccc(S(N)(=O)=O)cc1	-13.6	6.8	.	3.6	2.4	1.0	5.9	i
CCOc1ccc(NC(=S)NC(C)c2cccs2)cc1 (stereo not given)	4.5	4.8	.	1.9	0.2	-9.6	14.9	i
CCOC(=O)c1oc2ccc(CNCCO)c(Cl)c2c1C	8.9	-2.9	-13.2	-0.2	3.6	7.2	.	i
CN(c1ccccc1)S(=O)(=O)c1cccc(C(=O)OCC(=O)NCc2ccco2)c1	7.7	-13.8	0.9	2.1	2.5	0.6	-0.8	i
Cc1cc(C)n(C(=O)c2c([N+](=O)[O-])cnn2C)n1	4.4	-2.4	-29.7	-0.6	-1.2	-2.3	.	i
CCn1c(SCC(=O)N2CCc3ccccc3C2)nc2c1c(=O)n(C)c(=O)n2C	.	-14.6	-2.9	-1.6	2.1	24.2	-12.0	i
